# HPGD inh: blocks human HPGD enzyme activity; P15428; purified HPGD, NADH fluorescence kinetic, PGE2 substrate; Potency, µM, without a hit: top-dose activity change, negative = inhibition, actives largely listed as inhibitors; 150,000 compounds, 4.3% hits; active = well fitted inhibition curve with a large enough effect (not every such curve was filed as active); inconclusive = small, poorly fitted or top-dose-only effect, or another doubt; inactive = no such curve, though single readings can be large or run the other way;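 note: top concentration of the series not given in the record; plate controls included wells without enzyme; inactives centre near -10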
# Target sequence (P15428 whole entry, looked up): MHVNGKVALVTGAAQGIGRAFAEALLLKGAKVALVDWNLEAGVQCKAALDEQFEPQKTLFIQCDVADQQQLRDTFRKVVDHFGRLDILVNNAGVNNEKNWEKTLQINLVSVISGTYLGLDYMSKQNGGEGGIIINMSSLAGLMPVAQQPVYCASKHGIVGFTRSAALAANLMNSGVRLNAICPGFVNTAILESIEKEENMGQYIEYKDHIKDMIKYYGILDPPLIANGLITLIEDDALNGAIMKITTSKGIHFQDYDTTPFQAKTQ
#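 NADH formation kinetics: reaction with 30 uM PGE2 and 1 mM NAD+ (final), 20 nM enzyme, Tris-HCl pH 8 with Tween 20, after 15 min compound preincubation at room temperature. Fluorescence change, last versus first of five reads.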
# * = called active by the depositor; u = inconclusive; & = joins results of further samples. % is set by controls: 0 for no effect and ±100 for the full control effect; potency is the fitted concentration of half-maximal effect.
Molecule | HPGD inh
Cn1c(CN2CCCC2)nc2cc(NS(=O)(=O)c3ccccc3)ccc21 | -4.2%
CN(C)CCCC(=O)c1ccc2c(c1)OCO2 | -15.9%
CCOC(=O)c1ccc(NC(=O)CN2C(=O)C(=O)N(CC(C)C)C2=O)cc1 | -11.6%
CSC1=C(C#N)C(c2ccc(C(C)C)cc2)CC(=O)N1 (configuration not stated) | -5.2%
CC1CCCC(NC(=O)Cc2ccc(Br)cc2)C1C (configuration not stated) | 15.8µM*
O=C(Nc1ccc(N2CCCC2)c(Cl)c1)c1ccc(Br)o1 | -29.7%
Cc1[nH]n(-c2ccccc2)c(=O)c1C(C[N+](=O)[O-])c1ccccc1Cl (configuration not stated) | -12.2%
O=S(=O)(Nc1cccc2ncccc12)c1cccs1 | -18.1%
OCC[C@@H]1C[C@@H](O)[C@H](O)[C@]2(CCCCO2)O1 | -9.4%
CCc1ccc(/C=C/C(=O)c2cc(Br)ccc(=O)c2O)cc1 | 15.8µM*
c1ccc(N2CCN(Cc3ccnc4ccccc34)CC2)cc1 | -13.8%
O=C(CC(=O)Nc1ccc(Cl)c(Cl)c1)N/N=C/c1ccc(O)cc1 | -5.3%
Cc1ccc(SCCC(=O)Nc2ccccc2C(=O)N2CCOCC2)cc1 | 5.7%
CNC(=O)C1CC(=O)N(Cc2ccc3c(c2)OCO3)C(=Nc2ccc(OC)cc2)S1 (configuration not stated) | -8.0%
O=C(NCCN1CCOCC1)c1ccc2ccccc2n1 | -11.3%
O=C(NCc1cccs1)c1cccc(N2CCCC2=O)c1 | -17.3%
Cc1cc(Cl)ccc1NC(=S)N1CCC(C(N)=O)(N2CCCCC2)CC1 | -9.3%
Cc1cc(=O)c2n(Cc3ccc(Cl)cc3)nc[n+]2[nH]1 | -7.9%
COc1ccc(OC)c(N(CC(=O)NCCSc2ccccc2)S(C)(=O)=O)c1 | -4.2%
O=C(Nc1cccc(S(=O)(=O)Nc2ccc(Cl)cc2)c1)c1ccc2c(c1)OCCO2 | -8.9%
COC(=O)c1ccccc1NC(=S)NC(=O)COc1ccccc1 | -14.7%
Nc1nnc(CC(=O)N/N=C\c2cc([N+](=O)[O-])ccc2O)s1 | -29.4%
CN(C)c1ccc(CNC23CN4CN(CN(C4)C2)C3)cc1 | -11.6%
Clc1ccc(C2=CSC3=Nc4cccc5cccc(c45)N23)cc1 | 7.94µM*
N=C(N)SCc1nc2ccccc2c(=O)n1-c1ccccc1Cl | u
O=c1cc(O)c(-c2ccccc2Cl)c(Cl)[nH]1 | -5.8%
Nc1cccc2cnccc12 | -16.5%
CC(C(=O)N/N=C/c1ccc(N(C)C)c(Br)c1)N(c1ccccc1)S(C)(=O)=O (configuration not stated) | -1.7%
CCOc1ccc(-n2c(SCC(=O)c3c(N)n(C)c(=O)n(C)c3=O)nnc2-c2cccnc2)cc1 | -6.1%
Cc1ccc(C)c(N2C(=O)CC(N3CCN(Cc4ccc5c(c4)OCO5)CC3)C2=O)c1 (configuration not stated) | -13.4%
Cc1ccc(S(=O)(=O)N/N=C2/CC(c3ccccc3)Oc3ccccc32)cc1 (configuration not stated) | -8.2%
CCCCCC/C(C)=C1/SC(=S)NC1=O | 12.6µM*
CCCCCCCCCCCCC(C(=O)O)C(C)C(=O)O (configuration not stated) | -18.8%
CC(=O)Nc1ccc(/C=N/Nc2nc3ccccc3[nH]2)cc1 | u
CCCCNC(=O)C1CCCNC1=O (configuration not stated) | -11.8%
COC(=O)C(O)(CC(=O)Nc1ccc(C)c(F)c1)C(F)(F)F (configuration not stated) | -1.8%
Cc1cc(C)c2c(n1)nn1c(C)c(CCC(=O)NCc3ccco3)c(C)nc21 | u
Cc1ccc(C)c(N2CCN(C(=O)c3ccc(Cn4c(=O)[nH]c5ccccc5c4=O)cc3)CC2)c1 | -12.3%
O=C(O)c1ccccc1OCCOc1ccccc1C(=O)O | -3.1%
Cn1c(=O)c2c(nc(N3CCNCC3)n2Cc2cccc3ccccc23)n(C)c1=O | -18.0%
COc1ccc(-c2noc(-c3ccc(C)cc3)n2)cc1 | -7.8%
COc1ccc(NC(=O)CCN2CCN(S(=O)(=O)c3cc(Cl)ccc3OC)CC2)cc1 | -2.8%
O=C(O)CCN1Cc2ccccc2C1=O | -0.9%
O=C(c1ccc(N2C(=O)CCC2=O)cc1)N1CCN(c2ccccc2)CC1 | -4.9%
O=C(C1CCN(S(=O)(=O)c2ccc(Cl)cc2)CC1)N1CCOCC1 | -14.9%
CCOc1cc(CN2CCN(c3cccc(C(F)(F)F)c3)CC2)ccc1OC | -11.7%
CN1CCCCc2c1nc1ccccc1c2N (tested in a mixture with another compound) | -12.0%
Cc1nn(C)cc1/C=N/NC(=O)c1ccc2c(c1)OCO2 | -13.2%
NC(=O)c1ncc(C(F)(F)F)cc1Oc1ccc(C(F)(F)F)cc1 | -13.9%
Cc1nn(C)cc1/C=N/O | -3.0%
CCOc1ccc(S(=O)(=O)NCc2ccc(Cl)cc2)c2cccnc12 | u
Clc1ccc(C2=C3CCCCn4c(-c5ccccc5)c[n+](c43)C2)cc1 | u
COCC(=O)N1CCC2(CC1)CCN(C(=O)NC(C)C)CC2 | -5.4%
Nc1nc2n(n1)C(c1cccc(Br)c1)CC(c1ccc(F)cc1)N2 (configuration not stated) | -15.3%
CCOC(=O)N(C)OC(=O)Nc1ccc(Cl)c(Cl)c1 | u
COc1cccc(Nc2ncc3nc(-c4ccccc4)c(=O)n(C[C@H]4CCCO4)c3n2)c1 | -6.4%
Cc1ccc(S(=O)(=O)Nc2cc(C(C(=O)OC(C)C)C(=O)C(F)(F)F)c(O)c3ccccc23)c(C)c1 (configuration not stated) | -14.2%
Cc1nc(NCc2ccccc2)c2nc(-c3ccccc3)n(CCCN(C)C)c2n1 | u
CCOC(=O)c1c(-c2ccc(C)cc2)csc1NC1=NS(=O)(=O)c2ccccc21 | u
Cc1ccc(-c2nc3ccccc3c(=O)n2CCN2CCOCC2)cc1 | -5.0%

# Later entries:
Molecule | HPGD inh
Cc1cc(=O)[nH]c(N/N=C/c2c(O)n(-c3ccccc3)c(=O)c3ccccc23)n1 | -11.8%
CCCNCc1cc(OC)c(OCCC)cc1Cl | -16.2%
Cc1cc(C)c(OCCCCn2cnc3ccccc3c2=O)c(C)c1 | -26.2%
O=C(NCc1ccc(Cl)cc1)c1ccccc1CCc1ccccc1 | -11.1%
COc1ccccc1CN(Cc1nc2ccccc2c(=O)[nH]1)C(=O)Nc1cccc(C)c1 | -21.8%
Cc1noc(C)c1C(=O)N1CC(C)OC(C)C1 (configuration not stated) | -11.1%
O=C(O)CC1CCS(=O)(=O)C1 (configuration not stated) | -1.3%
CCOc1ccc(C(=O)c2cc([N+](=O)[O-])ccc2N2CCOCC2)cc1 | 1.6%
CN(C)S(=O)(=O)c1ccc2c(c1)nc(CCC(=O)Nc1ccc3c(c1)OCO3)n2C | -15.6%
CO/N=C/c1ccc(N2CCN(C(=O)c3ccc(F)cc3)CC2)c([N+](=O)[O-])c1 | -24.6%
CCOc1ccc(NC(=O)CC2C(=O)N(c3ccccc3)C(=O)N2CCc2cccs2)cc1 (configuration not stated) | -15.2%
Cc1cc2oc3c(c(=O)c2cc1C)C(c1ccc(F)cc1)N(CCCN1CCOCC1)C3=O (configuration not stated) | -17.7%
Cc1cccc(N2CCN(C(=O)C3CCN(S(=O)(=O)c4cccc5nsnc45)CC3)CC2C)c1 (configuration not stated) | -7.2%
CCCOC(=O)C1=C(C)NC2=C(C(=O)CC(C)(C)C2)C1c1ccc(N(C)C)cc1 (configuration not stated) | -12.1%
Cc1ccc(C(C)C)c(OCCN2C(=O)NC(C)(C)C2=O)c1 | -4.2%
O=C(Cc1cccs1)Nc1ccccc1NC(=O)Cc1cccs1 | 4.3%
O=C(CN1CCN(c2ccccn2)CC1)NCCc1ccccc1 | -5.5%
CCc1nnc(NC(=O)CSc2nnc(CSc3nc(C)cc(C)n3)o2)s1 | -11.0%
COc1cc(NS(=O)(=O)c2ccc(Nc3nc(-c4cccc([N+](=O)[O-])c4)cs3)cc2)nc(OC)n1 | -14.9%
COc1ccc(-n2cnnc2SCC(=O)Nc2nc(C)c(Cl)cc2Cl)cc1 | -1.8%
CC(=O)Nc1cccc(Cl)c1C(=O)O | 1.6%
COc1ccc(-c2nnc(SCC(=O)N3CCN(c4ccccc4)CC3)o2)cc1OC | -5.9%
CCOC(=O)C1CCN(C(=O)C2CCN(S(=O)(=O)CC)CC2)CC1 | -12.7%
CCN(CC)C(=O)CSc1nc(-c2cccs2)cc(-c2cccs2)c1C#N | u
O=C(Nc1ccc2nc(-c3cccs3)c(-c3cccs3)nc2c1)NC1CC1 | -16.2%
COc1ccc(CN2CCNC(=O)C2CC(=O)O)c(OC)c1 (configuration not stated) | -9.8%
CC(C)CN(C(=O)COC(=O)c1ccccc1Sc1ccccc1C#N)C1CCS(=O)(=O)C1 (configuration not stated) | -3.5%
Cc1nc2ccc(S(=O)(=O)Nc3cc(-c4nc5cccnc5s4)ccc3C)cc2s1 | u
COc1ccc(S(=O)(=O)N2CCN(C(=O)Cc3cccs3)CC2)cc1 | -3.4%
CCOC(=O)c1c(-c2ccc(-c3ccccc3)cc2)csc1NC(=O)C1C2CCC(O2)C1C(=O)O (configuration not stated) | 14.1µM*

# Four compounds out of the list above, ordered by the value under HPGD inh, ascending:
Molecule | HPGD inh
Clc1ccc(C2=CSC3=Nc4cccc5cccc(c45)N23)cc1 | 7.94µM*
CCCCCC/C(C)=C1/SC(=S)NC1=O | 12.6µM*
CCOC(=O)c1c(-c2ccc(-c3ccccc3)cc2)csc1NC(=O)C1C2CCC(O2)C1C(=O)O (configuration not stated) | 14.1µM*
CCc1ccc(/C=C/C(=O)c2cc(Br)ccc(=O)c2O)cc1 | 15.8µM*

# (further entries)
Molecule | HPGD inh
O=C(/C=C/Nc1ccc(F)cc1)c1ccc(Oc2ncccn2)cc1 | -8.4%
O=c1oc2ccccc2c2c1C(c1ccc(Cl)cc1)Nc1ccc3ccccc3c1-2 (configuration not stated) | u
O=C(CN1CCN(C(c2ccccc2)c2ccccc2)CC1)NC(=O)NCc1ccco1 | -13.6%
CC(=O)SC(C)CC(=O)Nc1ccccc1 (configuration not stated) | -28.6%
Cc1c(CNC2CCC(C)CC2)c(C(=O)O)c(C)n1Cc1ccccc1 (configuration not stated) | -7.8%
C=CCN1C(=O)c2oc3ccccc3c(=O)c2C1c1ccc(O)c(OC)c1 (configuration not stated) | -16.7%
CCC(Sc1nc2ccccc2c(=O)n1CC1CCCO1)C(=O)NCc1cccnc1 (configuration not stated) | -4.7%
O=C(c1cnccn1)N1CCC2(CCCN(C(c3ccccc3)c3ccccc3)C2)CC1 | -18.1%
O=C(c1ccco1)N1CCC2(CCCN(C(c3ccccc3)c3ccccc3)C2)CC1 | -10.2%
CNCc1cn2cc(Cl)ccc2n1 | -4.2%
COc1ccc(-c2c[n+]3c(n2-c2ccccc2)CCCCC3)cc1 | -2.4%
Cc1ccccc1-n1c(=O)cc(N2CC(C)OC(C)C2)[nH]c1=O (configuration not stated) | -20.9%
Cc1ccc(C2=NCCNC2=O)c(C)c1 | -4.5%
O=C(NCCO)c1ccc(-c2nnc(N3CCOCC3)c3ccccc23)cc1 | -27.7%
CC(C)(C)NC(=O)NC(=O)Cn1cc(C(F)(F)F)ccc1=O | -6.6%
CCN(CC)Cc1c(O)ccc2c(=O)c(Oc3ccccc3OC)coc12 | u
COC(=O)c1sc(S(=O)(=O)Nc2ccc3cn[nH]c3c2)c(C(=O)OC)c1C | -0.1%
COc1ccc(C)cc1NC(=O)CN1CCN(S(=O)(=O)c2ccc(F)cc2)CC1 | -5.8%
COc1cc(/C=C2\S/C(=N/S(=O)(=O)c3ccc(C)cc3)NC2=O)c([N+](=O)[O-])cc1OC | 7.08µM*
COc1cc(OC)cc(C(=O)NC(=S)NCCc2ccccc2)c1 | -10.9%
COc1ccccc1NC(=O)N1CCCC1C(=O)Nc1nnc(C(C)C)s1 (configuration not stated) | -1.3%
O=C(CCCN1C(=O)CCC1=O)Nc1cccc(C(F)(F)F)c1 | 5.4%
CC(C)N(C)C1CCN(C(=O)Nc2ccc(Cl)c(Cl)c2)CC1 | -2.1%
CCC(C)NS(=O)(=O)c1ccc(NS(=O)(=O)c2ccc(F)cc2)cc1 (configuration not stated) | -3.5%
Cc1ccccc1C(=O)/C=C1/c2ccccc2CC(C)(C)N1C | -21.7%
CCc1ccc(CCC(=O)Nc2nnc(CC)s2)o1 | -2.2%
N[C@H](C(=O)O)[C@H](O)C(=O)O | -14.2%&3.0%
COc1ccccc1C(=O)Nc1ccc(Cc2ccncc2)cc1 | -13.1%
N#CC1=C(N)C(C#N)(C#N)C(c2ccncc2)C2CN(C(=O)OCc3ccccc3)CC=C12 (configuration not stated) | -8.9%
O=C(NNC1=C(C(=O)C(F)(F)F)CCC1)c1ccc(Br)cc1 | -25.1%
Cc1ccc(S(=O)(=O)Cn2nnnc2C(c2ccc(F)cc2)N2CCC(C(N)=O)CC2)cc1 (configuration not stated) | -6.6%
COc1ccc(-c2nnc(SCc3ccccc3)n2N)cc1 | -16.3%
N#Cc1ccsc1NC(=O)COC(=O)c1cc2ccccc2cc1O | -6.5%
CCN(CC)C(=O)c1sc(NC(=O)c2ccoc2C)c(C(=O)OC)c1C | 14.1µM*
COc1ccc(C(c2sc3nc(C)nn3c2O)N2CCCCC2)cc1 (configuration not stated) | -12.9%
CC1(C)Cc2noc(N)c2C(C)(C)N1OC(=O)c1ccccc1 | -11.3%

# Bioassay records: PubChem, National Center for Advancing Translational Sciences (NCATS)

# This is a subset. The share of hits here may be higher or lower than overall.
